Source: PubChem
MT1-MMP act inh: blocks activation of human MT1-MMP. GFP/RFP ratio change, % at 20 µM. HT1080 RFP-PRO-GFP cells, GFP/RFP ratio fluorescence, overnight; percent of plate control window, DMSO zero. hit rate 0.061% among 360,000. P50281;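 active = GFP/RFP ratio change of at least 30% with cell ATP level not reduced by more than half and red fluorescence within 50% of control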; also: strong numbers were not always called active
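Assay system: RFP-PRO-GFP reporter HT1080 cells; read-out basis: GFP/RFP fluorescence ratio; benchmarks: DMSO wells and RFP-L50D-GFP cells; doses: 20 µM single dose, 1% DMSO; schedule: overnight cell settling, then overnight compound exposure, 37 °C, 5% CO2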
CSC inhib: cancer stem cell inhibition; cancer stem cell-like cells viability, luminescence; inhibition, % at 7.5 µM; hit rate 1.1% among 300,000; AID 2717;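 active = mean at 75% or more and at least half the replicates too; inconclusive = mean and replicates disagree; tested in HMLE shEcad cells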;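 also: 0% = median of negative and 100% = median of positive control wells; the first replicate is given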
HIV Env fusion: HIV envelope-mediated fusion inhibition; HeLa-JRFL Env/CEM21 cell fusion, luciferase; inhibition, % at 12.3 µM; hit rate 1.1% among 360,000;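 active = mean replicate inhibition score of at least 50 and every replicate individually at or above 50; inconclusive = only one of the two criteria met; inactive = mean below 50 and not all replicates reaching 50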;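 also: 0% = plate neutral controls and 100% = maraviroc near 300 nM; one replicate is shown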
PABP polyA inh: PABP-poly(A) binding inhibition; hit rate 1% among 290,000; AID 2014; PABP-poly(A) RNA binding, fluorescence polarization; P11940; inhibition, % at 35 µM;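 active = 50% or more with normal probe brightness, or confirmed in later tests; inconclusive = above 50% with abnormal brightness, or retests that disagree; inactive = below 50% or failed in later tests; about a fifth of its hits are not listed in these tables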;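 also: calls also rest on retests at 20 µM and on dose response follow-up; controls were probe without protein and protein plus probe with vehicle; some compounds called inactive have numbers as strong as hits; many hits fall short of the cut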
Target sequence (P11940 whole entry, looked up): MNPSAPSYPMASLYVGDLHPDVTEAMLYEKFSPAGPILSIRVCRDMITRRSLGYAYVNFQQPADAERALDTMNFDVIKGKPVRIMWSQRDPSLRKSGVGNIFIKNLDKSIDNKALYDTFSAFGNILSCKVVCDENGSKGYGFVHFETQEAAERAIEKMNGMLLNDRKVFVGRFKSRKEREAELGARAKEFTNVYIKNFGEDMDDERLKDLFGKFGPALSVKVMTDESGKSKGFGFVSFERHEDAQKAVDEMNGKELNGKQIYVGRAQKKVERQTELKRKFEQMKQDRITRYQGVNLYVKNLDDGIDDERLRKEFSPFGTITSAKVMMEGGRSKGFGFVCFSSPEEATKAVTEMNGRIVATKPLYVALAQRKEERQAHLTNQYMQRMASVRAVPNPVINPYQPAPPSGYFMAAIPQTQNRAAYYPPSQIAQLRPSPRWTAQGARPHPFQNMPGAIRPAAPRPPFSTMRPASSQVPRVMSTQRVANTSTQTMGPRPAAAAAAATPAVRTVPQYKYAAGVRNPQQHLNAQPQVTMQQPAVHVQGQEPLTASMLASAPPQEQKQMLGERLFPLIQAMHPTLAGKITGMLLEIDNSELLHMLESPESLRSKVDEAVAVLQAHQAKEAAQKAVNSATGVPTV
UUG fidelity: yeast start codon fidelity modulation | S. cerevisiae UUG-firefly luciferase reporter, luminescence/redox ratio | AID 602363 | activity score, % at 18.7 µM | hit rate 0.13% among 350,000;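 active = replicate mean at a twofold rise or more, about +100% in these data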;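 also: firefly luciferase made from a UUG start codon reports start codon fidelity; reporter light over untreated wells divided by growth signal over untreated wells; some hits fall short of that in this replicate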
eIF4H FP inh: inhibitors of RNA binding by human eIF4H; Q15056; eIF4H fluorescence polarization binding assay; inhibition, % at 35 µM; hit rate 0.94% among 290,000; AID 2012;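 active = 50% or more with normal probe brightness, or confirmed in later tests; inconclusive = above 50% with abnormal brightness, or retests that disagree; inactive = below 50% or failed in later tests; about a fifth of its hits are not listed in these tables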;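 also: calls also rest on retests at 20 µM and on dose response follow-up; 0% = protein and probe with vehicle and 100% = probe without protein; strong numbers were not always called active; many hits fall short of the cut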
Rce1 inh: yeast Ras-converting enzyme inhibition; Q03530; yeast membranes, quenched prenylated peptide cleavage fluorescence; calls only; hit rate 0.27% among 290,000;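 active = fall in fluorescence gain of 50% or more versus controls, with final raw signal at or below 3038400; inconclusive = same 50% fall but final raw signal above 3038400; inactive = fall in fluorescence gain under 50%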;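 also: plate controls were neutral control wells for no effect and wells lacking membranes for full effect; tested at 10 µM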
eIF4H FP inh retest: further read-out of eIF4H FP inh, marked with its call; inhibition, %; compound at 20 µM; confirmation average;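 mean of two retest wells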
PABP polyA inh retest: second read-out of PABP polyA inh, no call of its own (marks repeat the call); inhibition, %; compound at 20 µM; confirmation repeats;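 mean of two retest wells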
MT1-MMP act inh RFP: recorded beside MT1-MMP act inh, whose call it bears; RFP signal change, %; measured here: RFP expression control read;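 0 = vehicle wells; hits needed this value within 50% of zero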
Numbers without * were called inactive; i = inactive; u = inconclusive; x = not tested or not shown; & = joins results of further samples.

SMILES	MT1-MMP act inh	MT1-MMP act inh RFP	CSC inhib	HIV Env fusion	PABP polyA inh	UUG fidelity	eIF4H FP inh	Rce1 inh	others
O=C(CCN1c2ccccc2Sc2ccccc21)OCc1nnc(-c2ccccc2)o1	-3	-2	-18	x	-4	0	-2	i
Cc1nc(CSc2nnc3scc(-c4ccc(Cl)cc4)n23)cs1	-1	-3	-9	-54	-7	-18	0	i
O=C(c1ccc(Cl)cc1)N1CCN(c2ccc(N3CCOCC3)nn2)CC1	-3	4	x	-11	x	-6	x	x
CC1CC(C)CN(C2CCN(Cc3cccnc3)CC2)C1 (stereo not drawn)	1	3	-5	x	25	-12	-1	i
O=C(NCCCN1CCOCC1)c1ccc(NS(=O)(=O)c2cccc([N+](=O)[O-])c2)cc1	0	3	2	2	-13	-4	-8	i
O=C(NC(=S)NCC1COc2ccccc2O1)c1ccccc1 (stereo not drawn)	4	1	-3	x	-5	-17	-10	i
COc1ccccc1OCc1cc(C(=O)NCc2ccc(N3CCCC3=O)cc2)no1	1	-2	-16	0	-1	-2	1	i
Cc1nc(-n2[nH]c3c(c2=O)CCCC3)[nH]c(=O)c1Cc1ccccc1	-215	6	13	u	104*	-6	u	i	PABP polyA inh retest=90*
CCOC(=O)c1[nH]c(C)c(/C(O)=C2\C(=O)C(=O)N(CCN(C)C)C2c2cccc(OC)c2OC)c1C (stereo not drawn)	0	3	4	x	9	x	4	i
CCCCNCCOCCOc1ccc(C)cc1Br	1	1	34	-56	-1	-3	10	i
O=c1o[nH]c(-c2ccccc2)c1C1=NCCCCC1	4	4	-22	-42	x	-20	x	i
COc1cc2c(c(Br)c1N)-c1cc(Br)c(N)cc1C2=O	1	-2	x	1	x	-36	x	x
COCc1cc(C)nc2sc3c(=O)n(Cc4ccco4)nnc3c12	1	4	x	-11	3	-9	-2	x
Cn1cc(P(=S)(N2CCOCC2)N2CCOCC2)cc1P(=O)(N1CCOCC1)N1CCOCC1	-2	0	8	5	10	x	0	i
CC1CCCC(NC(=O)CCNS(=O)(=O)c2ccc(Br)cc2)C1C (stereo not drawn)	1	-4	-3	-1	-7	x	9	i
Cc1ccc(/C(N)=N/OC(=O)CCCc2ccccc2)cc1	-2	2	-2	-8	-4	-9	-2	i
Clc1ccccc1-c1nnc2sc(-c3ccco3)nn12	0	-3	-4	-30	-7	-20	-7	i
CC(C)(Oc1ccc(Cl)cc1)C(=O)NCc1ccco1	2	5	1	x	6	-23	-1	i
COc1ccccc1CCNC(=O)c1cc(COc2cccc(C(F)(F)F)c2)on1	-1	1	15	5	-6	14	5	i
CCN(CC)CC(O)Cn1c2ccccc2c2ccccc21 (stereo not drawn)	4	1	-6	x	1	-5	-2	i
C1=C[C@@H]2CCN(Cc3ccccc3)Cc3cccc(c32)C1	-23	0	16	12	x	-8	x	x
O=C(COC(=O)COc1ccccc1)Nc1ccc(S(=O)(=O)N2CCOCC2)cc1	2	1	10	7	-6	-13	-2	i
O=C(COc1coc(CN2CCc3ccccc3C2)cc1=O)Nc1cccc(Cl)c1	0	-9	6	22	x	-4	x	i
O=S(=O)(c1ccccc1)c1nc(-c2ccccc2)oc1NCc1cccnc1	-3	-2	-13	x	-3	-7	-12	i
Cc1ccc(NC(=O)c2nnn(-c3cccc(C(F)(F)F)c3)c2N)cc1	3	6	8	-3	-9	x	4	i
COc1ccccc1NS(=O)(=O)c1cccc(NS(=O)(=O)c2ccc(Cl)c(C(=O)O)c2)c1	2	3	x	5	x	-3	x	x
FC(F)(F)c1nc2ccccc2n2c(-c3ccc(Cl)cc3)nnc12	-3	-22	x	x	2	x	-7	i
CC1(C)Cc2c(c(N3CCOCC3)nc3sc4c(=O)[nH]cnc4c23)CS1	2	-3	1	4	13	-11	1	i
COc1ccc(NC(=O)Nc2nnc(N3CCCCC3C)s2)cc1OC (stereo not drawn)	4	6	-7	12	0	5	1	i
O=C(Nc1ccc2c(c1)OCO2)C1CCCCC1	-1	4	4	-57	-5	-10	-10	i
CCN(CC)CC(=O)Nc1ccccc1SCC(=O)Nc1ccsc1C(=O)OC	-3	0	7	24	5	x	-6	i
CCn1cc(C(=O)NCCN(C)CCc2ccccc2)c(=O)c2cc(S(=O)(=O)N(C)C)ccc21	-7	2	-3	-58	14	-10	-1	i
CCC(=O)Nc1ccc(NC(=O)C23CC4CC(CC(C4)C2)C3)cn1	1	3	-1	-113	6	-15	-5	i
CC(/C=N/NC(=O)c1ccncc1)=C\c1ccco1	-1	2	-3	3	15	x	25	i
O=C(CC(c1ccccc1)c1cc(Br)ccc1O)NCCN1CCOCC1 (stereo not drawn)	-2	0	-9	x	16	-4	0	i
Cc1ccc(C)c(NC(=O)Nc2ccc3c(c2)OCO3)c1	-1	-1	-4	-19	1	-7	-10	i
CC(C)=CCn1c2ccc(NC(=S)NC3CC3)cc2c(=O)n1C	0	-2	x	-16	x	-19	x	x
CCN(CC)c1ccc(C2C3CCCCC3(O)CCN2CC(=O)Nc2ccccc2)cc1 (stereo not drawn)	-1	-2	7	-19	0	-15	-7	i
O=c1cc(-c2ccccc2)cc(-c2ccccc2)n1CCO	5	5	-11	-19	x	-15	x	i
Cc1cccc2c3nc4ccccc4nc3n(C)c12	-5	-5	7	-12	u	22	u	i
CCOC(=O)C1(Cc2cccc(OC)c2)CCN(Cc2ccccc2)CC1	0	-2	-34	4	4	-7	-8	i
N#Cc1cc2c(nc1SCC(=O)N1CCCCC1)CCCC2	-7	-3	x	-84	10	-4	2	i
C[C@H]1CCC[C@]2(C)C[C@H]3OC(=O)C(CN4CCCCCC4)[C@H]3C=C12 (stereo partly drawn)	-23	-18	16	-5	0	-5	5	i
Oc1ccc(/C=N/Nc2nc(-c3ccc(Cl)cc3)cc(C(F)(F)F)n2)cc1	6	-13	85*	24	-12	-14	43	i
CC(=O)n1cc([C@@H]2C=C(C(=O)NCc3ccccc3)O[C@H](OCCCCO)C2)c2ccccc21	2	4	-20	-12	-1	-10	-1	i
CCC(C)Sc1nc(O)c(Cc2ccccc2)c(=O)[nH]1 (stereo not drawn)	3	3	-7	-6	7	15	-1	i
Cc1ccc(Oc2cc(NC(=O)CCCn3nc(C)c([N+](=O)[O-])c3C)cc([N+](=O)[O-])c2)cc1	-4	-10	62	x	-2	-15	-1	i
S=C(NCC1CCCO1)N1CCN(c2nc(-c3ccccc3)cs2)CC1 (stereo not drawn)	-1	-24	-4	23	-10	-15	-5	i
C=CCNC(=S)NNC(=O)C(CCCC)CC(O)COCC(C)C (stereo not drawn)	-3	0	2	8	-6	28	5	i
CCn1cc(C(=O)NC2CCCCC2)c(=O)c2ccc(C)nc21	3	-2	-3	-52	8	-6	4	i
COc1ccc(-c2ccc3oc(-c4ccsc4)c(-c4ccc(OC)cc4)c3c2)cc1	-3	3	25	25	x	-10	x	i
CC(C)(C)N1C(=O)[C@H]2[C@@H](c3ccc(Br)cc3)N3C(=O)N(c4cccc(Br)c4)C(=O)[C@@]3(Cc3ccccc3)[C@H]2C1=O	-1	-4	-13	x	-4	-3	-10	i
O=[N+]([O-])c1ccc(Cl)cc1Sc1cccc2cccnc12	-2	-4	-12	x	-7	-10	4	i
Cc1cccc(C(=O)Nc2ccc(C(=O)N/N=C/c3cccnc3)cc2)c1	-1	3	-6	12	5	-11	-7	i
O=C(O)C(c1ccccc1)C(O)C1CC=CCC1 (stereo not drawn)	-3	4	x	17	x	-2	x	x
CCn1c(SCC#N)nc2cc(S(=O)(=O)N3CCOCC3)ccc21	1	3	-4	-2	10	-15	-4	i
Cc1ccc(N(Cc2cc3cc(C)ccc3[nH]c2=O)C(=O)c2cccs2)cc1	1	-6	-10	x	-10	x	-6	i
CCOC(=O)C1=C(C)Nc2nc(SC)nn2C1c1ccc(C(=O)OC)cc1 (stereo not drawn)	2	6	-3	x	2	-5	2	i
CC(=O)c1ccc(NC(=O)C(C)N(C)CC(=O)Nc2cccc(F)c2)cc1 (stereo not drawn)	-5	-1	-12	-13	u	x	-13	i
CCCOC(=O)c1ccc(NC(=O)C2C3C=CC(O3)C2C(=O)O)cc1 (stereo not drawn)	-5	-2	x	x	-13	-26	1	i

The results go on.
SMILES	MT1-MMP act inh	MT1-MMP act inh RFP	CSC inhib	HIV Env fusion	PABP polyA inh	UUG fidelity	eIF4H FP inh	Rce1 inh	others
O=C(CSC1=NS(=O)(=O)c2cc(Cl)ccc2N1)c1ccc(Cl)cc1	2	5	8	-2	x	x	x	i
O=C(O)c1ccc(N/N=C/c2ccc(C(F)(F)F)cc2)cc1	1	0	-6	50	-2	-71	-2	i
CC1CN(c2cc(=O)n(Cc3ccc(F)cc3)c(=O)[nH]2)CC(C)O1 (stereo not drawn)	-1	-3	-9	-24	4	-17	1	i
Cc1cc(NC(=O)c2c(Cl)cnn2C)no1	-2	3	0	x	8	-3	-6	i
CCC(=O)NC(=S)Nc1ccc(OC)cc1OC	-1	2	-7	x	6	x	5	i
Cc1ccc(Nc2nnc(-c3ccccc3N)o2)cc1C	3	7	10	-74	5	x	0	i
CN(C)c1cc[n+](Cc2ccccc2)cc1	2	-6	15	x	3	-17	-8	i
Cc1nc2nc3c(c(=O)n2[nH]1)CCC3	-2	-6	0	-16	-8	x	-14	i
COCCCNc1nc(CC(C)C)nc2c1nnn2Cc1ccccc1	-2	1	-22	-33	-5	7	-8	i
COc1ccccc1CCNS(=O)(=O)c1cn(C)nc1C	-2	0	-15	3	-19	-17	81	i	eIF4H FP inh retest=11;PABP polyA inh retest=2
CC(C)/C=C1\CCc2c([nH]c3ccccc23)C1=O	-1	0	-9	-17	-11	x	1	i
COc1ccccc1NC(=S)NC(=O)/C=C/c1ccco1	-6	6	x	-2	5.9*	x	77	i	eIF4H FP inh retest=-6;PABP polyA inh retest=76*
O=C1[C@H]2[C@@H](c3ccc(F)cc3)N3C(=O)N(c4cccc(F)c4)C(=O)[C@@]3(Cc3ccccc3)[C@H]2C(=O)N1C1CCCCC1	-2	-14	24	95*	x	-21	x	i
COc1ccc(C2C(C(=O)Nc3ccccc3)=C(C)N=C3SCC(=O)N32)cc1 (stereo not drawn)	2	0	-10	16	-2	-13	-5	i
Cc1cc(C)c(S(=O)(=O)N2CC=C(c3ccccc3)CC2)c(C)c1	0	1	x	x	x	-24	x	i
Cc1nc(CN2CCN(C(=O)c3ccc(C(C)(C)C)cc3)CC2)cs1	1	-1	7	x	21	-9	-6	i
Cc1nc2nc[nH]n2c(=O)c1NC(=O)CC12CC3CC(CC(C3)C1)C2	1&1	4&4	-11&-8	x	1&-1	-13&-6	7&-3	i
Cc1ccc2cc(C)c3nnc(SCc4ccc(C(=O)O)cc4)n3c2c1C	6	6	-25	-2	-9	x	0	i
CC[C@H](C)[C@@H](C(=O)NCCCCCCCCCCC(=O)N1CCN(C(=O)OC(C)(C)C)CC1)n1cc(CCCCCNC(=O)OC(C)(C)C)nn1	8	-29	-5	18	x	-7	x	x
CC1CN(c2cc(=O)n(-c3ccccc3)c(=O)[nH]2)CC(C)O1 (stereo not drawn)	5	6	17	-3	-3	13	-5	i
Cc1ccc(S(=O)(=O)Nc2cc(-c3ccc(Cl)cc3)nn2C)cc1	1	0	1	16	18	-1	-17	i
COc1ccc(S(=O)(=O)n2nc(C)c(S(=O)(=O)N3CCOCC3)c2C)cc1	1	2	-16	-2	11	-1	-16	i
